High-throughput results as filed in PubChem.
CtBP-E1A inh – inhibitors of CtBP/E1A interaction; AID 651724; AlphaScreen GST-E1A/His-CtBP binding, 1536-well; hits give low values; control for the full effect not named in the record; activity change, % (no concentration beside the values); hit rate 0.49% among 340,000; in the data active means activity change below about -65%; inconclusive means about -30% to -65%; inactive means above about -30%; note: % is set by controls: 0 for no effect and ±100 for the full control effect; compound concentration not given in the record
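Steps: dispense buffer (Tris pH 8.0, NaCl 300 mM, TCEP 1 mM, BSA, Tween 20); add 5X protein mix (GST-E1A, His-CtBP, 125 nM each); pin 23 nL compound; 2 h at 37 °C, dark; add 5X beads (50 ug/mL); 1 h; read.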
TRPML1 agonist – agonists of human TRPML1 channel. hit rate 0.12% among 410,000. Q9GZU1. activation, % (test concentration not listed). TRPML1-expressing cells, Ca2+ dye fluorescence, FDSS; host cell line not named in the record; reference of the full effect not given here. AID 624414; in the data active = activation above about 50%; inconclusive = about 30% to 50%; inactive = below about 30%; note: 0% is about no effect; the text of the record puts the active cut at 80%
Target sequence (Q9GZU1 whole entry, looked up): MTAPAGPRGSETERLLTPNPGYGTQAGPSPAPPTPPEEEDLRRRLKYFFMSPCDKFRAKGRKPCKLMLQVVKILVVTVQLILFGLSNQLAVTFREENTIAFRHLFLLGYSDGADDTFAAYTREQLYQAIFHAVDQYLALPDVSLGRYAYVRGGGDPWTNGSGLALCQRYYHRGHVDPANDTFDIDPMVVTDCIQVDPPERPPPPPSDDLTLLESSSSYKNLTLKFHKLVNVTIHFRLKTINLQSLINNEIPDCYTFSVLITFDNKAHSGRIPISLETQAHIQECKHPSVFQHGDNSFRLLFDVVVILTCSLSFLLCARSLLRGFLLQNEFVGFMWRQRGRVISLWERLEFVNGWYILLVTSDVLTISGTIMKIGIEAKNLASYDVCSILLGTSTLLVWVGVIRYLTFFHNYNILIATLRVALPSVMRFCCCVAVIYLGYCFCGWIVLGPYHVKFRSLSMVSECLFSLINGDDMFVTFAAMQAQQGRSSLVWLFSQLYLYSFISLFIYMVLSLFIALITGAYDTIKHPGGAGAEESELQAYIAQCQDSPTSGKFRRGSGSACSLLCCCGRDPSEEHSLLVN
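Kinetic FDSS Ca2+ read in Tet-induced TRPML1-DL cells (ABD Ca8 dye plus quencher, 45-90 min RT loading): baseline, then compound, then 110 s agonist window; EC80 agonist 54-4 at 4uM final added afterwards for a 110 s antagonist window.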
Six1-Eya2 inh – blocks human Six1 binding to Eya2 | hit rate 0.56% among 360,000 | AlphaScreen GST-Six1/His-Eya2 binding, biochemical; hits give low values; control for the full effect not named in the record | activity change, % (test concentration not listed); in the data active = activity change below about -65%; inconclusive = about -30% to -65%; inactive = above about -30%; note: % is set by controls: 0 for no effect and ±100 for the full control effect; compound concentration not given in the record
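Homogeneous AlphaScreen proximity assay pairing GST-Six1 with His-tagged Eya2 (added as 5X mix: 250 nM and 500 nM) in 50 mM Tris pH 8.0, 300 mM NaCl, 1 mM TCEP. Glutathione donor and nickel acceptor beads; 1 h, 37 °C, dark.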
D2 potentiator – human D2 receptor positive allosteric modulation. DiscoveRx D2 beta-arrestin cells, luminescence, 90 min; 100% = 57 uM dopamine signal. P14416. hit rate 0.23% among 360,000. potentiation, % (concentration not given with the values); active = potentiation of 50% or more; inconclusive = 30% to 50%; inactive = 30% or less;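 note: compound concentration not given in the record; tested on top of an EC20 dose of dopamine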
Target sequence (P14416 whole entry, looked up): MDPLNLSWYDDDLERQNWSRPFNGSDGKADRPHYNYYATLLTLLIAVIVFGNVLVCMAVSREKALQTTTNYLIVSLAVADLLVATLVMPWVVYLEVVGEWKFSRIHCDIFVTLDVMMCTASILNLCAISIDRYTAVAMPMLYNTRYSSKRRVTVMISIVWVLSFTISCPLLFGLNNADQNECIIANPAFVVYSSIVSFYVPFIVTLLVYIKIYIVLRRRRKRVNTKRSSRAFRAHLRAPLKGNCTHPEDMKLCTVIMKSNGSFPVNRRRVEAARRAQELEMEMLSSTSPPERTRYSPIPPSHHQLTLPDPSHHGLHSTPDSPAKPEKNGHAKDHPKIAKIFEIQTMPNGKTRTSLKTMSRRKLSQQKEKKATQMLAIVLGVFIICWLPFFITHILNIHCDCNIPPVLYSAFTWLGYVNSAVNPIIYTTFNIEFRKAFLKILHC
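D2 cells co-treated with compound plus 50 nM dopamine (EC20) for 90 min at 37 deg C to detect potentiation. Beta-arrestin recruitment was read as enzyme-fragment luminescence after 1 h at ambient temperature. Full response was set by 57 uM dopamine.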
D2 agonist – activates the human D2 dopamine receptor | hit rate 0.084% among 360,000 | AID 624465 | DiscoveRx PathHunter D2 beta-arrestin, luminescence, 90 min; 100% = 57 uM dopamine signal | activation, % (concentration not given with the values); in the data active = activation above about 40%; inconclusive = about 15% to 40%; inactive = below about 15%; note: compound concentration not given in the record; the text of the record calls up to 30% inactive
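Agonist mode: compounds alone added to overnight-plated D2 PathHunter cells for 90 min at 37 C, with 57 uM final dopamine (EC100) defining full response. Beta-arrestin recruitment detected by chemiluminescent reagent, read after 1 h at ambient temperature.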
PINK1 modulator – changes PINK1 expression; PINK1 immunofluorescence, high-content cytometry, 24 h; Potency, µM (titrated, usually from 76.6 µM), without a hit: top-dose activation (PINK1 increase), usual class: activators; hit rate 0.2% among 410,000; active = well fitted activation curve with a large enough effect; inconclusive = small, poorly fitted or top-dose-only effect; inactive = flat fitted curve, though single readings scatter; cell line not stated here;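 note: potency is the fitted concentration of half-maximal effect; % of control where 0% means no effect; nearly all actives have a fitted effect of over 65% in size; a mitochondrial uncoupler was the plate control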
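Stable cell line, 250 cells/well, 12 h attachment; compounds pinned at 5 concentrations, 24 h; CCCP control. Fixed with nuclear dye, primary antibodies 12 h at 10 degrees C, secondary plus cell stain; laser-scanning cytometer read.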
Active calls of the source: *; & = joins results of further samples; [ ] = remark or other dose.

What do the screens show for `CC1CN(C(=O)c2cc(Br)c(Br)s2)CC(C)O1` (stereo unspecified)?
CtBP-E1A inh: 5.4; TRPML1 agonist: -0.6; Six1-Eya2 inh: 6.7; D2 potentiator: -2.8; D2 agonist: 7.5; PINK1 modulator: -1.9%

Results for O=C(Nc1ccccn1)c1ccc(=O)[nH]n1 ?
CtBP-E1A inh: -0.8; TRPML1 agonist: -0.5; Six1-Eya2 inh: -1.7; D2 potentiator: -8.1; D2 agonist: -0.9; PINK1 modulator: 0.4%

How did CCCCn1nnnc1NCc1cc(OC)c(OC)cc1OC do in these assays?
CtBP-E1A inh: 10.6; TRPML1 agonist: -0.2; Six1-Eya2 inh: 2.1; D2 potentiator: -9.5; D2 agonist: -0.4; PINK1 modulator: -2.2%[38.3 µM]

What do the screens show for `COc1ccccc1NC(=O)Cn1cnc2c(nc3n2CCCCC3)c1=O`?
CtBP-E1A inh: 3.4; TRPML1 agonist: -0.2&-0.6; Six1-Eya2 inh: 2.7; D2 potentiator: -12.7; D2 agonist: -1.1; PINK1 modulator: -1.2%&2.0%

How did CSc1nc2ccc(Cl)cc2[nH]1 do in these assays?
CtBP-E1A inh: -0.1; TRPML1 agonist: -0.4; Six1-Eya2 inh: 2.0; D2 potentiator: 4.7; D2 agonist: 3.0; PINK1 modulator: -5.2%[38.3 µM]

How did COc1ccc(-c2nnc(SCc3ccc(C(=O)O)cc3)n2C)cc1OC do in these assays?
CtBP-E1A inh: 11.7; TRPML1 agonist: -0.3; Six1-Eya2 inh: 5.9; D2 potentiator: -2.8; D2 agonist: -2.3; PINK1 modulator: 1.6%

Results for O=C(Nc1nnc(SCc2ccc(F)cc2)s1)c1ccc2ncsc2c1 ?
CtBP-E1A inh: 7.8; TRPML1 agonist: 1.0; Six1-Eya2 inh: -0.7; D2 potentiator: -2.4; D2 agonist: -3.3; PINK1 modulator: 6.6%

Results for O=C(NCc1ccco1)C1Cc2ccccc2CN1S(=O)(=O)c1ccccc1F (stereo unspecified) ?
CtBP-E1A inh: 0.2; TRPML1 agonist: -0.1; Six1-Eya2 inh: -11.9; D2 potentiator: -3.0; D2 agonist: -3.8; PINK1 modulator: -1.1%

What do the screens show for `CCOc1cc(/C=C2\C(=O)N(CCc3ccc(OC)c(OC)c3)C(C)=C2C(=O)OC)ccc1O`?
CtBP-E1A inh: 8.6; TRPML1 agonist: 2.2; Six1-Eya2 inh: -0.9; D2 potentiator: 6.4; D2 agonist: 11.8; PINK1 modulator: 0.4%

Results for CN(C)S(=O)(=O)c1ccc2c(c1)c(=O)c(C(=O)N1CCOCC1)cn2C ?
CtBP-E1A inh: 2.8; TRPML1 agonist: 0.0; Six1-Eya2 inh: -4.8; D2 potentiator: -3.3; D2 agonist: -2.6; PINK1 modulator: -0.4%

How did COc1cccc(C(C)(O)c2nc(-c3csc4ccccc34)cs2)c1 (stereo unspecified) do in these assays?
CtBP-E1A inh: 6.2; TRPML1 agonist: 0.6; Six1-Eya2 inh: 2.6; D2 potentiator: -7.2; D2 agonist: -3.3; PINK1 modulator: 4.4%

Results for O=C(COc1ccccc1)Nc1ccc2[nH]ncc2c1 ?
Six1-Eya2 inh: 5.6; D2 potentiator: 5.1; D2 agonist: -0.8; PINK1 modulator: -1.4%

Next part (3 carried over from the part before).
Results for CN(C)S(=O)(=O)c1ccc2c(c1)c(=O)c(C(=O)N1CCOCC1)cn2C ?
CtBP-E1A inh: 2.8; TRPML1 agonist: 0.0; Six1-Eya2 inh: -4.8; D2 potentiator: -3.3; D2 agonist: -2.6; PINK1 modulator: -0.4%

How did COc1cccc(C(C)(O)c2nc(-c3csc4ccccc34)cs2)c1 (stereo unspecified) do in these assays?
CtBP-E1A inh: 6.2; TRPML1 agonist: 0.6; Six1-Eya2 inh: 2.6; D2 potentiator: -7.2; D2 agonist: -3.3; PINK1 modulator: 4.4%

Results for O=C(COc1ccccc1)Nc1ccc2[nH]ncc2c1 ?
Six1-Eya2 inh: 5.6; D2 potentiator: 5.1; D2 agonist: -0.8; PINK1 modulator: -1.4%

Results for CCc1nn(CC(=O)NCCCN2CCN(C)CC2)c(=O)c2cc3sccc3n12 ?
CtBP-E1A inh: -6.1; TRPML1 agonist: 0.4; Six1-Eya2 inh: 2.7; D2 potentiator: -14.1; D2 agonist: -3.3; PINK1 modulator: -0.9%

How did CC(C)c1nnc(NC(=O)CCC(=O)N2CCN(Cc3ccccc3)CC2)s1 do in these assays?
CtBP-E1A inh: 0.8; TRPML1 agonist: 1.1; Six1-Eya2 inh: 2.2; D2 potentiator: -15.5; D2 agonist: -2.7; PINK1 modulator: -0.3%

What do the screens show for `COc1cc(C2C(C(=O)c3cc4ccccc4o3)=C(O)C(=O)N2CCN2CCOCC2)ccc1OCCC(C)C` (stereo unspecified)?
CtBP-E1A inh: 0.7; TRPML1 agonist: -0.2; Six1-Eya2 inh: -0.1; D2 potentiator: 8.4; D2 agonist: -4.0; PINK1 modulator: 4.7%

Results for Cn1c(SCC(=O)c2ccc(F)cc2)nnc1-c1cnccn1 ?
CtBP-E1A inh: 0.2; TRPML1 agonist: 1.2; Six1-Eya2 inh: 3.9; D2 potentiator: -10.1; D2 agonist: -0.4; PINK1 modulator: -2.0%

How did O=C(Nc1ccccc1Cl)Nc1ccnn1C1CCN(C(=O)CCN2CCCO2)CC1 do in these assays?
CtBP-E1A inh: 3.0; TRPML1 agonist: 0.2; Six1-Eya2 inh: 6.6; D2 potentiator: -6.1; D2 agonist: 1.7; PINK1 modulator: 1.6%

Results for CNC[C@@H]1Oc2c(NS(C)(=O)=O)cccc2C(=O)N([C@@H](C)CO)C[C@H]1C ?
CtBP-E1A inh: 2.7; TRPML1 agonist: -0.5; Six1-Eya2 inh: -2.5; D2 potentiator: -7.2; D2 agonist: -2.2; PINK1 modulator: 0.2%

Results for Cc1ccc(NC(=O)CCNC(=O)c2ccc(Br)cc2)cc1S(=O)(=O)N1CCCCCC1 ?
CtBP-E1A inh: 7.7; TRPML1 agonist: -0.1; Six1-Eya2 inh: -6.8; D2 potentiator: -9.3; D2 agonist: -3.2; PINK1 modulator: inconclusive

How did COc1ccc(OC)c(Nc2nc(N)nc(CCl)n2)c1 do in these assays?
CtBP-E1A inh: -1.0; TRPML1 agonist: 0.4; Six1-Eya2 inh: 0.9; D2 potentiator: -4.2; D2 agonist: -0.1; PINK1 modulator: 0.6%

What do the screens show for `CC(C)CNC(=O)CO/N=C/c1ccccc1Cl`?
CtBP-E1A inh: 0.0; TRPML1 agonist: -1.5; Six1-Eya2 inh: 7.6; D2 potentiator: -20.3; D2 agonist: -3.9; PINK1 modulator: 2.1%

What do the screens show for `OC(c1ccccc1)c1ccncc1` (stereo unspecified)?
CtBP-E1A inh: -0.1; TRPML1 agonist: -0.5; Six1-Eya2 inh: 0.7; D2 potentiator: -2.4; D2 agonist: -2.7; PINK1 modulator: 0.1%

Results for COc1ccc(CCNS(=O)(=O)c2ccc(-n3cnnn3)c(OC)c2)cc1OC ?
CtBP-E1A inh: -3.6; TRPML1 agonist: -0.6; Six1-Eya2 inh: -5.9; D2 potentiator: -23.0; D2 agonist: -4.0; PINK1 modulator: 0.1%

What do the screens show for `Cn1nc(-c2ccccc2)c2cc(C(=O)O)sc21`?
CtBP-E1A inh: inconclusive; TRPML1 agonist: 0.3; Six1-Eya2 inh: inconclusive; D2 potentiator: 2.7; D2 agonist: 1.5; PINK1 modulator: 0.6%

Results for Fc1ccc(/C=N/NC(=S)Nc2cccnc2)cc1F ?
CtBP-E1A inh: 2.2; TRPML1 agonist: 1.2; Six1-Eya2 inh: -2.0; D2 potentiator: -22.8; D2 agonist: -7.6; PINK1 modulator: 0.2%

What do the screens show for `COc1cc(OC)cc(C(=O)NCC(=O)Nc2ccc(C)c(Cl)c2)c1`?
CtBP-E1A inh: 4.1; TRPML1 agonist: 1.7; Six1-Eya2 inh: -8.6; D2 potentiator: -20.3; D2 agonist: 0.1; PINK1 modulator: 0.8%

What do the screens show for `Cc1ccc(NC(=O)CSc2nnc(NC(=O)c3ccc(S(=O)(=O)N4CCOCC4)cc3)s2)cc1`?
CtBP-E1A inh: 1.4; TRPML1 agonist: 0.2; Six1-Eya2 inh: 0.5; D2 potentiator: 4.7; D2 agonist: -5.6; PINK1 modulator: inconclusive

Results for O=C(NCCCN1CCCC(O)C1)c1cc(COc2ccc(F)cc2F)on1 (stereo unspecified) ?
CtBP-E1A inh: -4.6; TRPML1 agonist: -0.4; Six1-Eya2 inh: -2.3; D2 potentiator: -16.1; D2 agonist: 8.2; PINK1 modulator: 0.1%

What do the screens show for `COc1ccc(N(CC(=O)Nc2cccc(C)c2)S(=O)(=O)c2c(C)noc2C)cc1`?
TRPML1 agonist: 1.4; Six1-Eya2 inh: 3.6; D2 potentiator: 2.0; D2 agonist: 0.7; PINK1 modulator: 1.0%

What do the screens show for `Cn1c(C(=O)N2CCCC(C(=O)NCCc3ccccc3)C2)cc2sccc21` (stereo unspecified)?
CtBP-E1A inh: 13.3; TRPML1 agonist: -0.3; Six1-Eya2 inh: -3.0; D2 potentiator: -14.5; D2 agonist: -1.2; PINK1 modulator: 2.7%[38.3 µM]

What do the screens show for `Cc1ccc(SCCNC(=O)c2ccc(C)c(S(=O)(=O)Nc3ccccc3C)c2)cc1`?
CtBP-E1A inh: 1.7; TRPML1 agonist: 3.2; Six1-Eya2 inh: -7.5; D2 potentiator: -3.3; D2 agonist: -0.9

How did O=C(O)c1ccc(N2C(=O)c3cccc4cccc(c34)C2=O)cc1 do in these assays?
CtBP-E1A inh: 0.3; TRPML1 agonist: -0.1; Six1-Eya2 inh: 2.3; D2 potentiator: -2.0; D2 agonist: -1.9; PINK1 modulator: -0.9%

Results for O=C(c1cccc(Cl)c1)N1CCN(Cc2c[nH]c3ccccc23)CC1 ?
CtBP-E1A inh: 2.6; TRPML1 agonist: 0.2; Six1-Eya2 inh: -0.9; D2 potentiator: -10.2; D2 agonist: -7.0; PINK1 modulator: 0.5%

What do the screens show for `O=C(CN1CCN(CC(=O)c2ccccc2)CC1)c1ccccc1`?
CtBP-E1A inh: -14.1; TRPML1 agonist: -0.1; Six1-Eya2 inh: -11.4; D2 potentiator: -21.3; D2 agonist: -8.0; PINK1 modulator: 0.5%

What do the screens show for `N#CCCNS(=O)(=O)c1ccc(C(=O)OCC(=O)Nc2ccc3c(c2)OCO3)cc1`?
TRPML1 agonist: -0.3; Six1-Eya2 inh: 1.1; D2 potentiator: -4.4; D2 agonist: -3.6; PINK1 modulator: -0.7%

How did CCOC(=O)c1c(-c2ccccc2)oc2ccc(OC(C)C(=O)O)cc12 (stereo unspecified) do in these assays?
CtBP-E1A inh: -10.5; TRPML1 agonist: 0.2; Six1-Eya2 inh: 16.7; D2 potentiator: -0.6; D2 agonist: -4.7; PINK1 modulator: 0.2%

Results for CCOC(=O)c1sc(NC(=O)c2cccc(S(=O)(=O)N3CCc4ccccc43)c2)c(C#N)c1C ?
CtBP-E1A inh: 2.1; TRPML1 agonist: 1.4; Six1-Eya2 inh: 4.8; D2 potentiator: 4.0; D2 agonist: -1.0; PINK1 modulator: inconclusive
